Rango-impB inh – inhibitors of Rango-importin beta complex formation. Q14974. Rango CFP/YFP FRET sensor + importin beta, 45 min. Potency, µM (highest dose often 92.2 µM), for the others: at the highest dose inhibition of complex formation. 0.031% of 340,000 active; active = rising FRET ratio curve, often small or poorly fitted; inconclusive = mostly compound fluorescence or quenching in the first reads; inactive = flat curves in all reads;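 note: potency is the fitted concentration of half-maximal effect; 0% = DMSO wells and 100% = buffer wells lacking importin beta; nearly all actives have a fitted effect of over 15% in size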
Target sequence (Q14974 whole entry, looked up): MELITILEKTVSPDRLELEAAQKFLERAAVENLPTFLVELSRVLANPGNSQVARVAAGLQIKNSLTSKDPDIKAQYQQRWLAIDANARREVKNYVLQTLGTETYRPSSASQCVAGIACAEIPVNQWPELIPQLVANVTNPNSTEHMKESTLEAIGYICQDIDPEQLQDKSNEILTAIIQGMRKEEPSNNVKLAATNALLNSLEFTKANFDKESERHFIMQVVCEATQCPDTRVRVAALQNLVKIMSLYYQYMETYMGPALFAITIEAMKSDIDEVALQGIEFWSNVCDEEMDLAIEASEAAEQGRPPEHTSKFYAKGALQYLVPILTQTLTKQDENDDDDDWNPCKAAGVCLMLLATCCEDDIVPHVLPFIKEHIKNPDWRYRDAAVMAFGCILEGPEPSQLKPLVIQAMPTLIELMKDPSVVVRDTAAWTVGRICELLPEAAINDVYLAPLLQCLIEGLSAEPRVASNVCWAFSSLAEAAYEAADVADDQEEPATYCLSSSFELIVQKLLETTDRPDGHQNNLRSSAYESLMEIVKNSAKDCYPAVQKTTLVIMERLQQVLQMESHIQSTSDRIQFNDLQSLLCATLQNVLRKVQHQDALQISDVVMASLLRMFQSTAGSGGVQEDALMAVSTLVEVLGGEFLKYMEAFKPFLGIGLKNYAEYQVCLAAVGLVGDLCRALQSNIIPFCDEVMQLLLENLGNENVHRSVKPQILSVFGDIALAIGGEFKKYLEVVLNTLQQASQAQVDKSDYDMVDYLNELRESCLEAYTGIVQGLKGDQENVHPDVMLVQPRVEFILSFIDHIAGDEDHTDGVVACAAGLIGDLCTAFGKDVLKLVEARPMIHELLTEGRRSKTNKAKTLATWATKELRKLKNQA
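FRET biosensor Rango (snurportin 1 IBB between N-terminal EYFP and C-terminal Cerulean), 50 nM in PBS/1 mM DTT/0.02% Tween-20/0.1% BSA, preincubated 5 min RT with compound; 0.125 microM importin beta added, 45 min RT, CFP/YFP FRET ratio read.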
miR-21 reporter – miR-21 reporter, rising signal. 340,000 tested, under 10 active. HeLa miR-21 FLuc reporter, luciferase, 48 h. Potency, µM (doses to about 38.3 µM), inactives show at the top dose reporter change, positive = more light; active = well fitted rising curve with a large enough effect; inconclusive = small, poorly fitted or top-dose-only effect; inactive = no such curve, though single readings can be large or run the other way;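 note: % of control where 0% means no effect; miR-21 action dims this reporter so a rising signal means less miR-21 action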
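HeLa miR-21-FLuc reporter line, endogenous miR-21; 2000 cells/well in DMEM/10% FBS; compound titration up to ~40uM final, 48 h, 37 degree Celsius; luciferase detection reagent, 15 min lysis, CCD luminescence.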
GLA inh pH 4.5 – alpha-galactosidase A (human) inhibition, pH 4.5 | 230,000 tested, under 10 active | P06280 | activity change, negative = inhibition, % at 105 µM | purified enzyme, 4-MU-alpha-Gal fluorescence, pH 4.5 | AID 1467; inconclusive = small, poorly fitted or top-dose-only inhibition, or a rising curve; inactive = flat fitted curve, though single readings scatter; no compound was filed as active;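 note: 0% = full activity with enzyme and -100% = basal without enzyme; dose as in the result columns while the protocol names 77 µM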
Rango release inh – inhibition of RanGTP-driven Rango-importin beta dissociation; Biochemical FRET Rango-importin beta, RanGTP-induced dissociation; 0.071% of 340,000 active; O95149+P62826; Potency, µM (doses to about 46.1 µM), for the others: at the highest dose activity change, negative = inhibition; active means falling FRET ratio curve, often poorly fitted, with flat reads before Ran was added; inconclusive means other falling curves, or compound fluorescence or quenching; inactive means flat or rising ratio curve;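 note: potency is the fitted concentration of half-maximal effect; % of control where 0% means no effect; nearly all actives have a fitted effect of over 45% in size; -100% = wells without RanGTP and RCC1; the record marks most hits as doubtful in a second field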
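Compounds preincubate 5 min with complex of recombinant Rango and importin beta in PBS with 1 mM DTT. Ran (0.6 uM) loaded with 2 mM GTP plus 0.2 uM RCC1 starts dissociation; FRET is recorded 45 min later.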
* hit, by the source's call; u = inconclusive; x = not tested or not shown; & = joins results of further samples. An excerpt; count on the stated rates, not on these rows.

The first three compounds, ahead of the listing:
Rango-impB inh | Structure | miR-21 reporter | GLA inh pH 4.5 | Rango release inh
-0.7% | COc1cccc(-n2nc(C(=O)N3CC(C)CC(C)C3)c3ccccc3c2=O)c1 (centres undefined) | 1% | 5 | -2%
-3.4% | CCNc1nc(Oc2ccc(=O)n(-c3ccccc3)n2)nc(N(C)C)n1 | -8%&-3% | 9 | -6%
u | Cc1csc(=O)n1CCC(=O)OCC(=O)NCc1ccc(Cl)cc1Cl | x | x | -13%

The list itself (from the top)
Rango-impB inh | Structure | miR-21 reporter | GLA inh pH 4.5 | Rango release inh
-0.7% | COc1cccc(-n2nc(C(=O)N3CC(C)CC(C)C3)c3ccccc3c2=O)c1 (centres undefined) | 1% | 5 | -2%
-3.4% | CCNc1nc(Oc2ccc(=O)n(-c3ccccc3)n2)nc(N(C)C)n1 | -8%&-3% | 9 | -6%
u | Cc1csc(=O)n1CCC(=O)OCC(=O)NCc1ccc(Cl)cc1Cl | x | x | -13%
-2.9% | O=C(NCC1CCCO1)C(c1cccs1)N(Cc1ccccc1)C(=O)c1ccc(-c2ccccc2)[nH]1 (centres undefined) | 15% | -9 | -8%
1.3% | CC(C)(C)NC(=O)CSCc1c(Cl)cccc1Cl | -11% | -1 | 3%
u | Cc1cc(C)c2cc(C#N)c(NCCNC(=S)NCCCN3CCOCC3)nc2c1 | 5% | 7 | u
0.9% | COC(=O)CSc1nnc(CNC(=O)c2ccccc2OC)n1C | -5% | 2 | -8%
-2.6% | NC(=O)c1ccsc1NC(=O)CCS(=O)(=O)c1ccc(F)cc1 | x | x | -16%
3.1% | Cc1ccc(Nc2nc(C)c(CCC(C)C)c(=O)[nH]2)cc1 | -8% | -2 | 5%
-4.1% | O=C(NCCN1CCN(c2ccccc2F)CC1)c1ccc2nc3ccccc3c(=O)n2c1 | -14% | x | -18%
1.3% | COc1ccc2nc(NC(=O)CN(c3ccc(C)cc3)S(=O)(=O)c3c(C)nn(C)c3C)sc2c1 | 14% | -21 | 4%
x | Cn1c(=O)[nH]c(=O)c2c1nc(NC1CCCCC1)n2CC(=O)NC1CCCCC1 | -6% | 6 | x

Following part:
Rango-impB inh | Structure | miR-21 reporter | GLA inh pH 4.5 | Rango release inh
0.1% | c1ccc(Cc2nnc(N3CCCCC3)c3ccccc23)cc1 | -10% | -2 | 6%
0.8% | CCCCc1cc(C)c(S(=O)(=O)c2ccccc2C)c(=O)[nH]1 | 7% | x | -2%
u | Cc1ccc(Cc2cnc(N)s2)o1 | -7% | -5 | -20%
-2.5% | COc1cccc(CN2CCN(Cc3nc(-c4cccc(F)c4F)oc3C)CC2=O)c1 | -1% | -6 | -18%
u | Fc1ccccc1CNc1nc(-c2cccnc2)nc2ccccc12 | 6% | x | -7%
-4.1% | Cc1occc(=O)c1O | -3% | -1&-5 | -12%
0.3% | O=C(Nn1cnnc1)c1ccccc1Cl | 3% | x | -10%
0.5% | Cc1ccc(C)c2[nH]c(=O)c(CCNC(=O)CCc3ccccc3)cc12 | -1% | x | u
u | Cn1cc(/C=C(\C#N)C(=O)Nc2ncc(Cc3ccc(Cl)cc3)s2)c2ccccc21 | -3% | -10 | u
4.6% | O=C(O)c1ccc(CSc2nc3ccc(NC(=O)c4ccccc4C(=O)O)cc3s2)cc1 | 0% | 3 | 18%
-2.2% | CC(OC(=O)Cn1c(C(F)(F)F)nc2ccccc21)C(=O)N1CCCc2ccccc21 (centres undefined) | -3% | 5 | 1%
-1.1% | CCCCNC1C(CC)C(CCC)C(C#N)(C#N)C1(C#N)C#N (centres undefined) | 7% | -5 | -14%

Following part
Rango-impB inh | Structure | miR-21 reporter | GLA inh pH 4.5 | Rango release inh
-0.2% | O=C(CSc1nnc(NC(=O)c2c(F)cccc2Cl)s1)Nc1ccccc1F | -32% | x | 1%
10% | COCCCNCCCCOc1ccc(Br)cc1C | -3% | -3 | -4%
3.5% | CN(CCc1ccccc1)C(=O)c1cccc(NC(=O)Cc2cccc(NC(=O)C3CCCN(C(=O)C4CCCC4)C3)c2)c1 (centres undefined) | x | x | 0%
2.5% | COc1ccc2c(c1)C(C)=CC(C)(C)N2S(=O)(=O)c1ccc(NC(C)=O)cc1 | u | x | 32%
4.8% | CCN(CC)S(=O)(=O)c1ccc(C(=O)N(c2ccccc2)C2C=CS(=O)(=O)C2)cc1 (centres undefined) | 1% | 4 | -7%
-1.2% | COCCCn1c(SCc2ccc(OC)cc2)nc2cc(OC)c(OC)cc2c1=N | -7% | -1 | -2%
u | COc1ccc2c(c1)O/C(=C\c1sccc1C)C2=O | -58% | -8 | 10µM*
u | CCOC(=O)c1c(NC(=S)Nc2ccc(Cl)cc2)sc2c1CCN(C)C2 | -10% | 7 | u
-1.8% | Cc1ccnc(NC(=O)c2cccc(NC(=O)COc3ccccc3)c2)c1 | -25% | -3 | 18%
-0.5% | C/C(Cl)=C\CSc1nnc2n(N)c(=O)c3ccccc3n12 | -14% | -1 | -1%
-0.1% | CCOC(=O)Cc1csc(NC(=O)CSc2nnc(C3CC3)n2C)n1 | -7% | 0 | 4%
u | COc1cccc(C2/C(=C(\O)c3ccc4c(c3)OCCO4)C(=O)C(=O)N2c2nnc(C)s2)c1 (centres undefined) | -1% | x | u

Sorted by formula weight (largest number first): some entries from above
Rango-impB inh | Structure | miR-21 reporter | GLA inh pH 4.5 | Rango release inh
-2.2% | CC(OC(=O)Cn1c(C(F)(F)F)nc2ccccc21)C(=O)N1CCCc2ccccc21 (centres undefined) | -3% | 5 | 1%
-0.5% | C/C(Cl)=C\CSc1nnc2n(N)c(=O)c3ccccc3n12 | -14% | -1 | -1%
3.1% | Cc1ccc(Nc2nc(C)c(CCC(C)C)c(=O)[nH]2)cc1 | -8% | -2 | 5%

The list continues.
Rango-impB inh | Structure | miR-21 reporter | GLA inh pH 4.5 | Rango release inh
-0.1% | C=CCN(CC=C)S(=O)(=O)c1ccc2nc(NC(=O)C(C)C)sc2c1 | 17% | 2 | 1%
2.8% | Cn1cc([N+](=O)[O-])cc1-c1nc2ccccc2n1C | 0% | x | 20%
-1.2% | O=C(CCCN1C(=O)c2ccccc2C1=O)NCCCN1CCOCC1 | -7% | 3 | -2%
0.1% | CCOc1ccc(CCNC(=O)C2CCN(S(=O)(=O)c3ccc(C)cc3)CC2)cc1OCC | -4% | x | -11%
4.5% | CCOC(=O)C1CCN(S(=O)(=O)c2cccc3nonc23)CC1 | -6% | -4 | -2%
1.0% | CCOC(=O)C1=C(CSCC(=O)OC)NC(=O)NC1c1cc(C)ccc1C (centres undefined) | 0% | -1 | 15%
6.5% | Cc1nc2ccccn2c1C(=O)NN=C1CCN(C)CC1 | 7% | 10 | -3%
-1.1% | O=C(CCOc1ccccc1)OCC(=O)c1cc2ccccc2o1 | 0% | -4 | 0%
-4.5% | COc1ccc(C(C)=O)cc1CSCCC(=O)O | -2% | -20 | 13%
-3.3% | COCCCN1C(=O)C2C(C(=O)Nc3cccc(Cl)c3)C3C=CC2(O3)C1C(=O)NC1CCCCC1 (centres undefined) | 10% | x | -11%
-1.7% | Cc1onc(-c2ccccc2)c1C(=O)NCc1ccc(Cl)cc1 | -4% | x | 8%
0.9% | CC(=O)c1c(C)nc(-c2ccccc2)nc1NC(=O)Cc1ccccc1 | -7% | 4 | 20%

Additional entries follow.
Rango-impB inh | Structure | miR-21 reporter | GLA inh pH 4.5 | Rango release inh
-5.5% | CN=Cc1cc(-c2ccccc2)sc1O | -42% | 2 | 2%
0.4% | CN1CCC(OC(=O)COc2ccc(F)cc2)CC1 | 2% | 0 | 3%
2.1% | O=C1CCN(Cc2ccc(Cl)cc2)N1 | -7% | x | 1%
-0.5% | Cc1ccc(-c2nc(Nc3ccc(O)cc3)c3ccccc3n2)cc1 | -10% | x | -11%
-2.2% | O=C(NCc1cccnc1)c1csc2c1CCCC2 | -3% | 6 | -9%
-2.7% | Cc1onc(-c2ccccc2)c1C(=O)Nc1ccnn1C1CCCCC1 | -1% | -3 | 24%
-3.5% | CCc1nc(N2CCOCC2)c(C#N)c2c1CCCC2 | -13% | 1 | 17%
-2.9% | CC(C)(C)c1ccc(Cn2nnc3c(=O)[nH]c(C4CCN(C(=O)c5ccco5)CC4)nc32)cc1 | -4% | x | -4%
-0.2% | CCOC(=O)C1CCCN(Cc2ccc(-c3ccccc3)cc2)C1 (centres undefined) | 13% | x | 2%
-0.6% | Cc1ccc(-c2csc(NC(=O)C3CCN(S(=O)(=O)c4cccs4)CC3)n2)cc1 | 27% | -1 | -2%
-1.9% | O=C(NCc1ccco1)C1CC(c2ccc(C(F)(F)F)cc2)=NO1 (centres undefined) | x | x | -12%
0.0% | CCN1C(=NCc2cc(OC)c(OC)c(OC)c2)N[C@@H](c2ccccc2)C(C(=O)OC)=C1C | 0% | x | 24%

(next part)
Rango-impB inh | Structure | miR-21 reporter | GLA inh pH 4.5 | Rango release inh
0.1% | CSc1cccc(NC(=S)N(Cc2ccc(C)cc2)Cc2cccnc2)c1 | 5% | -6 | -9%
0.0% | O=C(C/C=N/OCc1ccc(Cl)cc1Cl)c1ccccc1 | -24% | -5 | 1%
1.0% | CCOc1ccc(C(=O)OC(C)CN2CCN(C)CC2)cc1 (centres undefined) | -7% | x | 1%
0.8% | O=C(CCc1nc2cccnc2n1Cc1ccccc1)NCCc1ccc(Cl)cc1 | -4% | 1 | -10%
3.9% | COC(=O)C1=C(C(=O)OC)C(c2ccccc2O)c2sc(=O)[nH]c2S1 (centres undefined) | 4% | -5 | -8%
-3.6% | O=S(=O)(Cc1ccccc1)Nc1ccc(S(=O)(=O)N2CCCC2)cc1 | 3% | 7 | 11%
-2.7% | Cc1nc(N2CCCCC2)c2c(C)c(C(=O)Nc3ccccc3C(F)(F)F)sc2n1 | 1% | -11 | 0%
0.9% | Cc1cc(SCC(=O)NC2(C#N)CCCCC2)nc2c(C)cccc12 | x | x | 5%
-0.4% | CCCCn1c(=O)[nH]c(=O)c2c1nc(-c1ccccc1F)n2Cc1ccccc1 | 6% | -6 | 2%
3.2% | Cc1ccc(NC(=O)COC(=O)CCn2c(C)csc2=O)cc1S(=O)(=O)N1CCOCC1 | x | x | 0%
-1.6% | Cc1cc(NC(=O)C(=O)NCc2cccc(Cl)c2)no1 | 0% | -8 | -12%
3.1% | O=C(O)C1CCCCC1C(=O)NCCc1ccccc1 (centres undefined) | -5% | 2 | 4%

Next part:
Rango-impB inh | Structure | miR-21 reporter | GLA inh pH 4.5 | Rango release inh
-0.1% | CCOc1cc(C(=O)OCC(=O)c2c(C)[nH]c3ccccc23)ccc1OCC(=O)N1CCOCC1 | 8% | 1 | 19%
3.1% | COc1ccccc1NS(=O)(=O)c1ccc(C(=O)N2CCN(c3ccccc3O)CC2)cc1 | x | x | 4%
-1.6% | Cc1ccc(C(=O)OCC(=O)NCc2cccs2)cc1C | -1% | 8 | 15%
-1.3% | COc1ccccc1CNCc1ccc(C)cc1 | 6% | x | 4%
-4.8% | Cc1ccc(/C=C/C(=O)Nc2ccc(S(=O)(=O)Nc3onc(C)c3C)cc2)cc1 | -9% | x | 3%
-0.7% | Nc1nc(Sc2ccc(C(F)(F)F)cn2)n[nH]1 | 1% | -9 | -6%
7.4% | COc1ccccc1NS(=O)(=O)c1cc([N+](=O)[O-])ccc1N/N=C/c1sc(N2CCOCC2)nc1-c1ccccc1 | -15% | -14 | 12%
-5.7% | CC(/C=N/NC(=O)Cn1cnc2ccccc21)=C\c1ccccc1 | -4% | -5 | u
-4.1% | CN(Cc1ccccc1)C(=O)COc1ccc(Br)cc1Cl | -28% | 4 | 1%
3.5% | CC(=O)N1CCN(C(=O)CNc2cc(C(F)(F)F)ccc2OCC(F)(F)F)CC1 | -1% | 0 | 12%
2.2% | COc1cccc(C(=O)Nc2c[nH]c(=O)[nH]c2=O)c1 | 1% | 0 | -14%
-0.2% | C/C(=N\Nc1ncc(Cl)cc1Cl)c1ccc(OC(F)F)cc1 | -56% | -3 | -7%

Molecules listed so far that contain a nitro group on carbon:
Rango-impB inh | Structure | miR-21 reporter | GLA inh pH 4.5 | Rango release inh
2.8% | Cn1cc([N+](=O)[O-])cc1-c1nc2ccccc2n1C | 0% | x | 20%
7.4% | COc1ccccc1NS(=O)(=O)c1cc([N+](=O)[O-])ccc1N/N=C/c1sc(N2CCOCC2)nc1-c1ccccc1 | -15% | -14 | 12%

Assay outcomes: PubChem, National Center for Advancing Translational Sciences (NCATS)
